Vaccinia Venus – qHTS for Stage-Specific Inhibitors of Vaccinia Orthopoxvirus: Venus Reporter Primary qHTS; Vaccinia virus Venus reporter expression, fluorescence; Potency, µM (highest dose often 36.5 µM), inactives show at the highest dose activity change, negative = inhibition, usual class: inhibitors; 0.46% of 330,000 active; AID 720580, 2013; active means well fitted inhibition curve with a large enough effect; inconclusive means small, poorly fitted or top-dose-only effect; inactive means no such curve, though single readings can be large or run the other way; tested in A549 cells; note: nearly all actives have a fitted effect of over 30% in size; inactives centre near -10
Vaccinia mCherry – qHTS for Stage-Specific Inhibitors of Vaccinia Orthopoxvirus: mCherry Reporter Primary qHTS; Vaccinia virus mCherry reporter infection, fluorescence; about a quarter of the inactives have no number; Potency, µM (top dose mostly 36.5 µM), without a hit: top-dose activity change, negative = inhibition, hits mostly inhibitors; 0.63% of 310,000 active; active = well fitted inhibition curve with a large enough effect; inconclusive = small, poorly fitted or top-dose-only effect; inactive = no such curve, though single readings can be large or run the other way; tested in A549 cells; note: nearly all actives have a fitted effect of over 35% in size; inactives centre near -10
The depositor's hits bear a star; i = inactive; ? = inconclusive; . = not tested or not shown; [ ] = another dose, or the depositor's remark. % is set by controls: 0 for no effect and ±100 for the full control effect; potency is the fitted concentration of half-maximal effect.

smiles,Vaccinia Venus,Vaccinia mCherry
Cc1cc(C)c(S(=O)(=O)NCC(c2ccc3c(c2)OCO3)N2CCOCC2)c(C)c1 (configuration not stated),-8.6%,-21.3%
O=C(COC(=O)CCC1CCCC1)Nc1cccc(S(=O)(=O)N2CCOCC2)c1,-26.0%,?
C/C(=N\N=C1\NC(=O)CS1)c1cccs1,-4.6%,i
Cc1ccc(S(=O)(=O)N2CCCCC2)cc1NC(=O)CSc1ncn[nH]1,41.2%[activator],-6.2%
CCCN1C2CCCC1CC(NC(=O)c1ccccc1Br)C2 (configuration not stated),-16.1%,i
CCCCn1nnnc1C(c1cc2ccccc2o1)N1CCN(C(=O)OC(C)(C)C)CC1 (configuration not stated),3.0%,-8.1%
Cc1nc2ccccc2n1C(=O)c1ccccc1[N+](=O)[O-],-6.8%,-12.6%
O=C(N/N=C/c1cccc([N+](=O)[O-])c1)c1cccc2cc[nH]c12,-1.6%,-3.8%
Cc1cc2nc(-c3ccccc3)c(Cc3cccc(F)c3)n2c(C)c1Br,9.1%,0.8%
CS(=O)(=O)c1ccc(C(=O)N2CCN(Cc3ccccc3)CC2)cc1,-2.4%,9.3%
COC(=O)C1=C(N)Oc2cc(C)n(CC3CCCO3)c(=O)c2C1c1ccccc1 (configuration not stated),-4.1%,.
COc1ccc(-c2cc(C(=O)NCc3ccc(C(F)(F)F)cc3)[nH]n2)c(C)c1,5.9%,32.2%[activator]
CCCCn1c(NC(=S)Nc2ccccc2)nc2ccccc21,?,-28.7%
O=C(NC(=S)Nc1ccc(Cc2ccncc2)cc1)c1ccccc1Cl,-1.3%,0.8%
C[C@@H](CN1CCC(Cc2ccccc2)CC1)[C@@H](O)c1ccc(O)cc1,-15.4%,-0.9%
CC(=O)N1CCCC(c2cc(C(=O)Nc3ccccc3)no2)C1 (configuration not stated),4.0%,-1.3%
Cc1ccc(N(CC(=O)NCC2CCCO2)S(C)(=O)=O)cc1Cl (configuration not stated),-1.4%,-5.9%
CC1(C(=O)NS(=O)(=O)c2ccc(C#N)cc2)CCN1C(=O)C1CCCCC1 (configuration not stated),2.2%,7.8%
CCOC(=O)CC1C(=O)NCCN1S(=O)(=O)c1ccc(C)cc1 (configuration not stated),-3.7%,-10.8%
CCOC(=O)c1ccc(N2C(=O)CC(C3CCCO3)C2=O)cc1 (configuration not stated),-11.7%,i
O=C(CSc1nnc(-c2ccc(F)cc2)c2ccccc12)Nc1ccccc1,-7.4%,i
COC(=O)c1cc2sc(Cl)cc2n1CC(=O)Nc1ccc(OC)c(OC)c1OC,-23.7%,-22.5%
CC(=O)c1c(C)[nH]c(C(=O)OCC(=O)c2ccc(Br)cc2)c1C,?,-8.6%
COc1ccc2nc(C)cc(SCC(=O)N/N=C/c3ccc(O)c(O)c3)c2c1,-6.5%,-25.9%
CCOC(=O)c1ccccc1NC(=O)CSc1nc2ccncc2[nH]1,-1.4%,-11.6%
Cn1c(=O)c2c(nc(CN3CCN(c4ccccc4F)CC3)n2CCCc2ccccc2)n(C)c1=O,-9.9%,.
CCC(=O)Nc1ccccc1C(=O)N1CCN(Cc2ccccc2)CC1,-1.5%,.
COc1ccc(NC(=O)CSCC(=O)N(C)CCOc2ccc(Cl)cc2)cc1,-14.8%,-19.1%
FC(F)(F)c1cccc(NC(=S)NCC(c2cccnc2)N2CCOCC2)c1 (configuration not stated),-8.3%,i
CCOC(=O)N1CCN(C(=O)c2cc(COc3cccc(C(C)=O)c3)on2)CC1,-7.3%,-14.6%
C=CCC1(C(C)CCC)C(=O)N=C(S)NC1=O (configuration not stated),60.0%[activator],48.2%[activator]
O=C(CC(Cc1ccccc1)c1ccco1)NCc1ccco1 (configuration not stated),-8.2%,-15.4%
O=C(CC(c1ccccc1)c1ccccc1)N1CCN(c2ccccn2)CC1,-10.1%,-1.2%
O=C(Cc1csc(NC(=O)Nc2ccc(Cl)cc2)n1)NC1CCCC1,-25.9%,?
O=c1[nH]cnc(O)c1Nc1cccc(Cl)c1,1.6%,i
O=C(NC(NC(=S)Nc1c(Cl)cccc1Cl)C(Cl)(Cl)Cl)c1cccc([N+](=O)[O-])c1 (configuration not stated),?,?
Cc1ccc(S(=O)(=O)N2CCCCCC2)cc1C(=O)NCc1ccccn1,-3.5%,-18.5%
CC/C(=N\NC(=O)C1CCCC1)c1cccc(Br)c1,-19.7%,i
Cc1cccc(NC(=O)CNC(=O)Cn2ncc(Cl)c(Cl)c2=O)c1C,-4.4%,i
OCCC1CN(Cc2cccc3c2OCO3)CCN1C1CCCC1 (configuration not stated),-9.8%,i

4 records drawn at random from those above, as already listed:
smiles,Vaccinia Venus,Vaccinia mCherry
Cc1ccc(S(=O)(=O)N2CCCCCC2)cc1C(=O)NCc1ccccn1,-3.5%,-18.5%
O=C(CC(c1ccccc1)c1ccccc1)N1CCN(c2ccccn2)CC1,-10.1%,-1.2%
O=c1[nH]cnc(O)c1Nc1cccc(Cl)c1,1.6%,i
O=C(NC(NC(=S)Nc1c(Cl)cccc1Cl)C(Cl)(Cl)Cl)c1cccc([N+](=O)[O-])c1 (configuration not stated),?,?

Next entries:
smiles,Vaccinia Venus,Vaccinia mCherry
Cc1ccc(C(=O)NCC(=O)OC2CCCCC2=O)cc1C (configuration not stated),-5.7%,i
Cc1ccccc1-n1c(SCC(=O)NC2CCS(=O)(=O)C2)nc2ccccc2c1=O (configuration not stated),-13.7%,-13.2%
O=C(NN=C1CCN(Cc2ccccc2)CC1)c1ccccc1O,-2.5%,-0.5%
Cc1ccc2c(COC(=O)C3CSC4(C)CCC(=O)N34)cc(=O)oc2c1C (configuration not stated),-16.1%,?
CCN1CCN(C(=O)c2c(-c3c(F)cccc3Cl)noc2C)CC1,-8.1%,-14.4%
CC(=O)C[C@@H](O)CC(=O)[C@H]1OC(=O)[C@@H](C)C/C=C\Cc2ccccc21,2.2%,-0.5%
O=C(O)c1cc(S(=O)(=O)NCCN2CCNC2=O)ccc1O,-8.1%,-12.0%
COc1ccc(N2C(=O)CS(=O)(=O)C23C(=O)N(Cc2cccc(F)c2)c2ccccc23)cc1OC (configuration not stated),0.0%,-0.6%
CCCN1CCC(NC(=O)CCc2nnc(-c3ccccc3)o2)CC1,-16.6%,?
CCCc1nnc(NC(=O)C2CC(=O)N(C3CCCC3)C2)s1 (configuration not stated),-20.7%,-21.7%
COc1ccc(C(=O)C2CCCN(C(=O)c3cc(C)nc(C)n3)C2)cc1OC (configuration not stated),-3.8%,i
O=C(NCCC1=CCCCC1)c1ccc(Cl)c([N+](=O)[O-])c1,-6.7%,i
COc1ccc(S(=O)(=O)N2CCN(C)CC2)cc1NC(=O)c1ccccc1,-7.0%,-16.4%
O=C(c1ccco1)N1CCN(C(=O)c2ccc(COc3ccc(F)cc3)o2)CC1,-18.4%,.
ON=C(CCc1ccccc1)CCc1ccccc1,-18.8%,-20.4%
CCOC(=O)N1CCN(CC(O)COC2CC(C)CCC2C(C)C)CC1 (configuration not stated),-28.1%,.
O=[N+]([O-])c1ccccc1S(=O)(=O)Nc1cccc(-c2ccc(N3CCCC3)nn2)c1,-19.3%,-8.4%
COc1cc(SC)ccc1C(=O)Nc1nccs1,-2.3%,5.9%
CCc1ccc(CN2CCC(Oc3cc(C(=O)NC4CC4)ccc3OC)CC2)cc1,-2.0%,2.3%
COc1ccc(-c2[nH][nH]c(=O)c2NC(=O)c2ccccn2)cc1,0.5%,3.6%
CC1=C(C(=O)NCCc2ccc(Cl)cc2)C2(CCCCC2)OC1=O,-23.1%,-5.1%
CCCCN(CCCC)Cc1cc(=O)oc2ccccc12,-0.8%,38.6%[activator]
COc1cc(NC(=O)C2=CC(c3ccc(C)cc3)=NS(=O)(=O)N2C)cc(OC)c1OC,-20.9%,-15.8%
OC[C@@H]1CN(CCN2CCOCC2)C[C@H](n2cnc3c(N4CCOCC4)ncnc32)O1,-1.6%,i
CN(C)c1ccc(-c2ccnc3c2CC(C)(C(=O)NCc2ccccc2)O3)cc1 (configuration not stated),-28.9%,?
CCN(CC)CCOc1cccc(C(C)C)c1,-4.1%,.
O=C(CSc1nncs1)N1c2ccccc2Sc2ccccc21,-16.5%,-8.7%
O=C(Cc1cccc(F)c1)NO,-11.9%,-10.3%
C#CCSc1ncc(S(=O)(=O)c2ccccc2)c(=O)[nH]1,-3.8%,-18.8%
O=C(c1cc(Cl)ccc1[N+](=O)[O-])n1cnc2ccccc21,-18.5%,?
O=C(O)/C=C/C(=O)NC1CC1,-0.9%,i
CS(=O)(=O)N1CCc2cc(C(=O)Nc3ccccc3)ccc21,-13.5%,-12.2%

As a short view, seven of the compounds above:
smiles,Vaccinia Venus,Vaccinia mCherry
CCN(CC)CCOc1cccc(C(C)C)c1,-4.1%,.
O=C(CSc1nncs1)N1c2ccccc2Sc2ccccc21,-16.5%,-8.7%
O=C(Cc1cccc(F)c1)NO,-11.9%,-10.3%
C#CCSc1ncc(S(=O)(=O)c2ccccc2)c(=O)[nH]1,-3.8%,-18.8%
O=C(c1cc(Cl)ccc1[N+](=O)[O-])n1cnc2ccccc21,-18.5%,?
O=C(O)/C=C/C(=O)NC1CC1,-0.9%,i
CS(=O)(=O)N1CCc2cc(C(=O)Nc3ccccc3)ccc21,-13.5%,-12.2%

Further compounds follow:
smiles,Vaccinia Venus,Vaccinia mCherry
CC1CC(C)CN(CCCNC(=O)c2ccc3nc(N4CCOCC4)sc3c2)C1 (configuration not stated),4.5%,11.9%
Cc1ccc2c(c1)C(=O)C(=O)N2Cc1ccc(OC(C)C)cc1,?,-22.5%
C=CCC(=O)NC1CCCc2c1cnn2-c1cc(F)cc(F)c1 (configuration not stated),-8.4%,-11.3%
Cc1ccc(O)c(C(=O)C=Cc2ccccc2)c1,-5.5%,-2.8%
O=C(Cc1ccc(S(=O)(=O)N2CCOCC2)s1)Nc1cc(Cl)ccc1Cl,-5.6%,i
CC(=O)Nc1cccc(NC(=O)c2ccc3[nH]c(C)c(C)c3c2)c1,-10.4%,-18.3%
C=CCNC(=O)O/N=C/c1csc([N+](=O)[O-])c1,-3.9%,i
CCOC(=O)[C@H]1[C@H]2COc3ccc(Cl)cc3[C@@H]2N2C(=O)[C@H](C)NC(=O)[C@@]12C,-9.7%,-2.7%
O=C(c1cc(C2CC2)on1)N1CCOCC1,6.1%,4.1%
NC(=O)NC(CC(=O)NNC(=O)c1cccs1)c1ccc(Cl)cc1 (configuration not stated),-10.3%,-18.7%
O=C(O)CC(CNS(=O)(=O)c1ccccc1)c1ccccc1 (configuration not stated),-7.0%,18.5%
O=C(CN1CCOCC1)Nc1ncc(Cc2ccccc2Cl)s1,-16.6%,-0.4%
O=C(CSCc1c(F)cccc1Cl)Nc1ccccc1C(=O)N1CCOCC1,-1.3%,-12.3%
CCOC(=O)C1CCN(/C=C2/C(=O)NC(=O)N(c3cccc(C)c3C)C2=O)CC1,-17.1%,-7.1%
CCOC(=O)c1c(C)[nH]c(C)c1S(=O)(=O)NCC(=O)Nc1cccc(SC)c1,1.7%,-8.4%
COC(=O)c1ccc2[nH]ccc2c1,-3.2%,i
CCc1ccccc1NC(=O)CSc1nc2ccccc2nc1N1CCOCC1,-15.2%,i
Cc1ccc2oc3nc(C)c(C(=O)O)cc3c(=O)c2c1,-4.6%,-10.0%
Cc1cccc(NC(=O)c2ccc(S(=O)(=O)N3CCCC3)cc2)c1C,-21.3%,-7.5%

High-throughput results as filed in PubChem BioAssay.
